Screening data: PubChem, several laboratories
eIF4H inh: inhibitors of RNA binding by human eIF4H; Q15056; inhibition, % at 35 µM; 0.94% of 290,000 active; eIF4H fluorescence polarization binding assay;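 active = 50% or more with normal probe brightness, or confirmed in later tests; inconclusive = above 50% with abnormal brightness, or retests that disagree; inactive = below 50% or failed in later tests; about a fifth of its hits are not listed in these tables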;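 note: calls also rest on retests at 20 µM and on dose response follow-up; 0% = protein and probe with vehicle and 100% = probe without protein; strong numbers were not always called active; many hits fall short of the cut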
CSC inhib: cancer stem cell inhibition; cancer stem cell-like cells viability, luminescence; inhibition, % at 7.5 µM; 1.1% of 300,000 active; AID 2717;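 active = mean at 75% or more and at least half the replicates too; inconclusive = mean and replicates disagree; tested in HMLE shEcad cells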;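 note: 0% = median of negative and 100% = median of positive control wells; the first replicate is given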
MT1-MMP act inh: MT1-MMP (human) activation inhibition | P50281 | GFP/RFP ratio change, % at 20 µM | 0.061% of 360,000 active | HT1080 RFP-PRO-GFP cells, GFP/RFP ratio fluorescence, overnight; percent of plate control window, DMSO zero;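 active = GFP/RFP ratio change of at least 30% with cell ATP level not reduced by more than half and red fluorescence within 50% of control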; note: strong numbers were not always called active
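Material: RFP-PRO-GFP reporter HT1080 cells. Dosing: single-point 20 µM compound, 1% DMSO. Controls: DMSO and RFP-L50D-GFP cell wells. Timing: cells overnight before dosing, compound overnight, 37 °C, 5% CO2. Measure: GFP/RFP fluorescence ratio.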
Yeast UUG start: modulators of start codon recognition fidelity in yeast. S. cerevisiae UUG-firefly luciferase reporter, luminescence/redox ratio. activity score, % at 18.7 µM. AID 602363. 0.13% of 350,000 active;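 active = replicate mean at a twofold rise or more, about +100% in these data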;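 note: firefly luciferase made from a UUG start codon reports start codon fidelity; reporter light over untreated wells divided by growth signal over untreated wells; some hits fall short of that in this replicate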
Rce1 inhib: blocks yeast Ras-converting enzyme | Q03530 | yeast membranes, quenched prenylated peptide cleavage fluorescence | calls only | 0.27% of 290,000 active | AID 2563;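 active = fall in fluorescence gain of 50% or more versus controls, with final raw signal at or below 3038400; inconclusive = same 50% fall but final raw signal above 3038400; inactive = fall in fluorescence gain under 50%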;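 note: plate controls were neutral control wells for no effect and wells lacking membranes for full effect; tested at 10 µM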
Target sequence (Q03530 whole entry, looked up): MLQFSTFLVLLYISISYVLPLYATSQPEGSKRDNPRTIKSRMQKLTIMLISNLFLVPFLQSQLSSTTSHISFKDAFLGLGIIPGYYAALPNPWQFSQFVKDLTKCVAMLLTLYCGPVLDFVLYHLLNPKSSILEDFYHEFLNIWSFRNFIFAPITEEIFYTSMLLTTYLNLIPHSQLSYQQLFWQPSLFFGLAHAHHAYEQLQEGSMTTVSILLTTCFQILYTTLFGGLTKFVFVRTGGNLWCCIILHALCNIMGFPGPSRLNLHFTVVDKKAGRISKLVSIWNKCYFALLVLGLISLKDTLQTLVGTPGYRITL
Env fusion inh: inhibitors of HIV Env-mediated cell fusion; HeLa-JRFL Env/CEM21 cell fusion, luciferase; 1.1% of 360,000 active; AID 651610; inhibition, % at 12.3 µM;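 active = mean replicate inhibition score of at least 50 and every replicate individually at or above 50; inconclusive = only one of the two criteria met; inactive = mean below 50 and not all replicates reaching 50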;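 note: 0% = plate neutral controls and 100% = maraviroc near 300 nM; one replicate is shown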
PABP polyA inh: PABP-poly(A) binding inhibition. P11940. PABP-poly(A) RNA binding, fluorescence polarization. inhibition, % at 35 µM. 1% of 290,000 active. AID 2014;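 active = 50% or more with normal probe brightness, or confirmed in later tests; inconclusive = above 50% with abnormal brightness, or retests that disagree; inactive = below 50% or failed in later tests; about a fifth of its hits are not listed in these tables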;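 note: calls also rest on retests at 20 µM and on dose response follow-up; controls were probe without protein and protein plus probe with vehicle; some compounds called inactive have numbers as strong as hits; many hits fall short of the cut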
Target sequence (P11940 whole entry, looked up): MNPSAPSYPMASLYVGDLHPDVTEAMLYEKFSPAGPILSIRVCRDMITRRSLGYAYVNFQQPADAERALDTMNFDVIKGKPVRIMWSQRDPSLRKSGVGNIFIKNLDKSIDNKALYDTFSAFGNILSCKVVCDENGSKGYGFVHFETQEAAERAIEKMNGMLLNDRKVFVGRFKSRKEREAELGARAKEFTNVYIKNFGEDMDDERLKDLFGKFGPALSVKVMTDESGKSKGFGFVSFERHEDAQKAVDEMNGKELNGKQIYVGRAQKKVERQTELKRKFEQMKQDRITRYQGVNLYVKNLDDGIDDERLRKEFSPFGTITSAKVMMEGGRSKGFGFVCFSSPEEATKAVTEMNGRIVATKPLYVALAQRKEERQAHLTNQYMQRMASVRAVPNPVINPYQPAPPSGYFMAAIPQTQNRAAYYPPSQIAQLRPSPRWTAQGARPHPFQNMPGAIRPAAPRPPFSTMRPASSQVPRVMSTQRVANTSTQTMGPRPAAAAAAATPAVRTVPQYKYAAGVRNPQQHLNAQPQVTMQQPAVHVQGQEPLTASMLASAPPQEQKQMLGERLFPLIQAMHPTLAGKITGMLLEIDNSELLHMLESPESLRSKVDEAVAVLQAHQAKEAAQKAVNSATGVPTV
eIF4H inh retest: recorded beside eIF4H inh, whose call it bears; inhibition, %; compound at 20 µM; confirmation average;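 mean of two retest wells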
PABP polyA inh retest: second read-out of PABP polyA inh, no call of its own (marks repeat the call); inhibition, %; compound at 20 µM; confirmation repeats;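 mean of two retest wells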
MT1-MMP act inh RFP: further read-out of MT1-MMP act inh, marked with its call; RFP signal change, %; measured here: RFP expression control read;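 0 = vehicle wells; hits needed this value within 50% of zero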
* marks the source's active call; other numbers are inactive results; i = inactive; ? = inconclusive; . = not tested or not shown. These rows are one share of the data (hit frequency here may not be typical).

Sample of the layout:
SMILES	eIF4H inh	CSC inhib	MT1-MMP act inh	MT1-MMP act inh RFP	Yeast UUG start	Rce1 inhib	Env fusion inh	PABP polyA inh	others
COC(=O)c1ccc(C)c(NC(=O)CCSc2ccc(Cl)cc2)c1	1	-7	-1	-3	-3	i	.	-1
COc1ccc(CC(=O)Nc2nc(-c3cccnc3)cs2)cc1	1	-1	-4	-9	-9	i	35	0
Cc1ccc(CN2CCN(Cc3cn(C(C)C)c4ccccc34)CC2CCO)o1 (configuration not stated)	1	0	2	1	-13	i	-38	-3
COc1ccccc1C1NC(c2ccccc2OC)C(C)C(=O)C1C (configuration not stated)	-3	.	6	1	-11	i	.	-7
CCOc1ccc(N(CC(=O)NC2CC3CCC2C3)S(=O)(=O)c2ccc(C)cc2)cc1 (configuration not stated)	-1	-12	-3	-6	3	i	17	-2
CCS(=O)(=O)N1CCCC(C(=O)NCCc2ccc(C)cc2)C1 (configuration not stated)	4	-12	2	5	.	i	-11	-2
Cn1c(SCc2nc(-c3ccc(Cl)cc3)no2)nnc1-c1cccs1	-7	17	1	-3	-9	i	83*	-1
COc1ccc(C(=O)Nc2ccccc2C(=O)NCc2ccco2)cc1OC	-7	-7	2	2	-27	i	-39	2
COc1cccc(NC(=S)NNC(=O)C(C)n2nc(C)c([N+](=O)[O-])c2C)c1 (configuration not stated)	12	-17	4	2	-27	i	-14	6
CCc1nccn1CCC(=O)NC1CC(C)(C)Cc2c1cnn2-c1cccc(F)c1 (configuration not stated)	6	-2	0	3	6	i	18	-1
CN(Cc1nccs1)C(=O)c1ccc(OC2CCN(Cc3ccccn3)CC2)cc1	2	-10	-1	0	-21	i	14	5
CO[C@@H]1CN(C)C(=O)c2cc(NC(=O)Nc3ccc(Cl)cc3)ccc2OC[C@H](C)NC[C@H]1C	.	.	-2	4	39	.	-2	.
COc1ccc(NC(=S)N2CCN(c3ccc([N+](=O)[O-])cc3)CC2)cc1OC	11	-11	6	-13	.	i	11	2
CC1CN(C(=O)Cn2c(C(F)(F)F)nc3ccccc32)CC(C)O1 (configuration not stated)	-3	-9	0	-2	0	i	-82	-5
COCC(C)N1C(=O)Cc2c1nc(N)c1c(N)nc(N3CCN(c4ccccc4F)CC3)c(C#N)c21 (configuration not stated)	7	-1	0	-10	.	i	10	-5

This part in full (from the top)
SMILES	eIF4H inh	CSC inhib	MT1-MMP act inh	MT1-MMP act inh RFP	Yeast UUG start	Rce1 inhib	Env fusion inh	PABP polyA inh	others
COC(=O)c1ccc(C)c(NC(=O)CCSc2ccc(Cl)cc2)c1	1	-7	-1	-3	-3	i	.	-1
COc1ccc(CC(=O)Nc2nc(-c3cccnc3)cs2)cc1	1	-1	-4	-9	-9	i	35	0
Cc1ccc(CN2CCN(Cc3cn(C(C)C)c4ccccc34)CC2CCO)o1 (configuration not stated)	1	0	2	1	-13	i	-38	-3
COc1ccccc1C1NC(c2ccccc2OC)C(C)C(=O)C1C (configuration not stated)	-3	.	6	1	-11	i	.	-7
CCOc1ccc(N(CC(=O)NC2CC3CCC2C3)S(=O)(=O)c2ccc(C)cc2)cc1 (configuration not stated)	-1	-12	-3	-6	3	i	17	-2
CCS(=O)(=O)N1CCCC(C(=O)NCCc2ccc(C)cc2)C1 (configuration not stated)	4	-12	2	5	.	i	-11	-2
Cn1c(SCc2nc(-c3ccc(Cl)cc3)no2)nnc1-c1cccs1	-7	17	1	-3	-9	i	83*	-1
COc1ccc(C(=O)Nc2ccccc2C(=O)NCc2ccco2)cc1OC	-7	-7	2	2	-27	i	-39	2
COc1cccc(NC(=S)NNC(=O)C(C)n2nc(C)c([N+](=O)[O-])c2C)c1 (configuration not stated)	12	-17	4	2	-27	i	-14	6
CCc1nccn1CCC(=O)NC1CC(C)(C)Cc2c1cnn2-c1cccc(F)c1 (configuration not stated)	6	-2	0	3	6	i	18	-1
CN(Cc1nccs1)C(=O)c1ccc(OC2CCN(Cc3ccccn3)CC2)cc1	2	-10	-1	0	-21	i	14	5
CO[C@@H]1CN(C)C(=O)c2cc(NC(=O)Nc3ccc(Cl)cc3)ccc2OC[C@H](C)NC[C@H]1C	.	.	-2	4	39	.	-2	.
COc1ccc(NC(=S)N2CCN(c3ccc([N+](=O)[O-])cc3)CC2)cc1OC	11	-11	6	-13	.	i	11	2
CC1CN(C(=O)Cn2c(C(F)(F)F)nc3ccccc32)CC(C)O1 (configuration not stated)	-3	-9	0	-2	0	i	-82	-5
COCC(C)N1C(=O)Cc2c1nc(N)c1c(N)nc(N3CCN(c4ccccc4F)CC3)c(C#N)c21 (configuration not stated)	7	-1	0	-10	.	i	10	-5
O=C(/C=C/c1cnc2ccccc2n1)NC12CC3CC(CC(C3)C1)C2	-5	.	2	-1	-38	i	.	6
Cc1cccc(-n2c(SCC(=O)N3CC(=O)Nc4ccccc43)nc3ccccc3c2=O)c1	-4	-4	-7	-4	-8	i	50	8
c1ccc2c(c1)CC1(CCCC1)N=C2N1CCOCC1	-6	-8	-1	0	-11	i	-5	-11
Cc1ccc(Cc2c(-c3ccco3)nc3c(C)cc(Br)cn23)cc1	.	.	-5	-6	-8	.	8	.
COc1ccc(NC(=O)CCc2nc3ccccc3[nH]2)cc1	-4	-17	6	6	.	i	-6	6
COCCCN(C(=S)Nc1cccc(Cl)c1)C(C)c1ccncc1 (configuration not stated)	2	-12	6	6	.	i	13	11
COCCCN(C(=O)c1ccc(N2CCCC2=O)cc1)c1c(N)n(Cc2ccccc2)c(=O)[nH]c1=O	.	-9	2	5	-12	i	4	.
CN(C)Cc1c(C(=O)N/N=C/c2ccc(-c3ccccc3)cc2)nnn1-c1nonc1N	-2	-10	4	5	-8	i	5	2
Nc1nc(-c2ccco2)nn1C(=O)c1ccc([N+](=O)[O-])cc1	5	1	-2	-6	.	i	6	10
CCC(=O)NC(NC(=S)Nc1c(C)n(C)n(-c2ccccc2)c1=O)C(Cl)(Cl)Cl (configuration not stated)	10	6	1	4	.	i	.	10
Fc1ccc2nc(Nc3nc4c(F)cc(F)cc4s3)sc2c1	11	49	-14	-21	.	i	11	0
Cc1c(CN2CCC(n3nccc3NC(=O)C3CCOC3)CC2)[nH]c2ccccc12 (configuration not stated)	-8	-7	-1	3	-1	i	-8	-14
COc1ccc(N2CC(C(=O)Nc3ccc(S(=O)(=O)Nc4nccs4)cc3)CC2=O)cc1 (configuration not stated)	1	-2	6	6	.	i	-23	8
CCOC(=O)C1CCCN(C(=O)C2CCN(C(=O)Nc3ccccc3)CC2)C1 (configuration not stated)	.	-4	-3	2	-9	i	.	.
COc1ccccc1C(=O)NCC(=O)N/N=C(\C)Cc1ccccc1	-6	-11	-4	0	-14	i	-5	10
Cc1cccc(CCNC(=O)CCNS(=O)(=O)c2cc(Br)cnc2N)c1	.	-2	-6	-4	-4	i	-2	.
Cc1cc(NC(=O)CCC(=O)N(CC(C)C)C(C(=O)NC(C)(C)C)c2ccccc2Cl)no1 (configuration not stated)	7	-3	-6	-2	8	i	14	16
c1ccc2c(Nc3ccc4c(c3)OCCO4)c3c(nc2c1)CCCC3	-8	-7	4	-2	.	i	-70	14
COC(=O)c1ccn(CSc2cc(Cl)ccc2Cl)n1	.	-9	-2	0	-31	.	-42	.
CCCN(CCC)C(=O)C1CCCN(S(=O)(=O)c2ccc3c(c2)oc(=O)n3C)C1 (configuration not stated)	-4	-4	-1	3	4	i	1	2
CCOc1ccc(S(=O)(=O)Nc2nc3ccccc3nc2-n2ccc(=NC(=O)c3ccccc3C)cc2)cc1	?	-7	-26	0	.	i	-2	?
CCN(CC)S(=O)(=O)c1csc(C(=O)NCc2ccccc2)c1	-3	-15	5	0	-13	i	30	5
COc1ccc(NC(=O)c2cc3ccccc3o2)cn1	-12	.	-4	0	-8	i	-46	-6
CCOc1ccccc1Oc1c(C)oc2cc(OC(=O)c3ccco3)ccc2c1=O	-6	6	0	-2	-16	i	-13	-18
Cc1ccccc1-c1noc(-c2ccccc2F)n1	11	3	8	4	-8	i	.	8
CCOc1ccc(/C=N/NC(=O)c2ccccc2NC(=O)c2ccc(OC)cc2)cc1	-7	-6	-3	-6	.	i	-61	19
O=C(O)CC(NS(=O)(=O)c1ccc2c(c1)OCCO2)c1ccccc1[N+](=O)[O-] (configuration not stated)	.	2	-1	3	-20	.	4	.
CCc1c(C(=O)Nc2ccccc2)c(C)[nH]c(=S)c1C#N	-1	-7	5	4	.	.	.	11
O=C(Nc1ccccc1)C(=O)Nc1ccccn1	-14	10	-5	0	-40	.	-100	-7
CC(=O)c1cccc(NC(=O)N2CCCC2C(=O)Nc2cc(C)ccc2C)c1 (configuration not stated)	1	-10	4	-1	3	i	.	-6

Fetched by structure from above:
SMILES	eIF4H inh	CSC inhib	MT1-MMP act inh	MT1-MMP act inh RFP	Yeast UUG start	Rce1 inhib	Env fusion inh	PABP polyA inh	others
CCOc1ccccc1Oc1c(C)oc2cc(OC(=O)c3ccco3)ccc2c1=O	-6	6	0	-2	-16	i	-13	-18
CCOc1ccc(S(=O)(=O)Nc2nc3ccccc3nc2-n2ccc(=NC(=O)c3ccccc3C)cc2)cc1	?	-7	-26	0	.	i	-2	?

The list continues.
SMILES	eIF4H inh	CSC inhib	MT1-MMP act inh	MT1-MMP act inh RFP	Yeast UUG start	Rce1 inhib	Env fusion inh	PABP polyA inh	others
CCOc1ccc2nc(Cl)c(C3CC(c4ccccc4)=NN3C(=O)c3ccco3)cc2c1 (configuration not stated)	-5	34	.	.	.	i	.	-1
CS(=O)(=O)N(CC(=O)NCCSCc1ccco1)c1ccc(Cl)cc1	0	-6	0	1	-4	i	7	-5
CCOc1ccc2[nH]c(=O)c(CN(Cc3cccs3)Cc3nnnn3C(C)(C)C)cc2c1	0	38	-2	-6	-6	i	.	0
O=C(NNC(=O)c1ccccc1[N+](=O)[O-])c1csc(N2CCOCC2)n1	.	-3	0	4	-20	.	-61	.
Cc1noc(C)c1S(=O)(=O)N1CCCCC1c1cc(C(=O)Nc2cccc3c2CCCC3)no1 (configuration not stated)	.	.	-2	-7	-19	.	13	.
O=C(CSc1c2c(nc3cc(Cl)ccc13)CCCC2)NCCN1CCOCC1	7	-1	3	0	.	i	8	0
Cc1cc(O)c(/C=N/c2ccccn2)c(=O)o1	89	-1	-38	10	-7	i	.	115	eIF4H inh retest=0;PABP polyA inh retest=0
Cc1ccc(NC(=O)CSc2nnc(-c3ccncc3)s2)cc1	2	-13	-3	-4	-17	.	2	8
CN(C)CCCCOc1cccc(Br)c1	8	.	7	7	.	i	-41	-5
CN(Cc1nc2ccccc2n1C)C(=O)c1cccs1	6	-4	-2	2	-18	i	-22	9
c1ccc(COn2c(-c3ccccc3)nc3c2CCc2nonc2-3)cc1	-11	-8	-7	1	-36	i	.	-1
CC12CN3CC(C)(CN(C1)C3c1ccc(Br)cc1)C2 (configuration not stated)	-15	-8	-7	-5	-16	i	5	9
